Env fusion inh: inhibitors of HIV-1 Env-driven cell-cell fusion, primary screen, HeLa-JRFL effector, CEM21 target cells, luciferase | AID 651610, 2012 | inhibition, % at 12.3 µM | 1.1% of 360,000 active;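 active = mean replicate inhibition score of at least 50 and every replicate individually at or above 50; inconclusive = only one of the two criteria met; inactive = mean below 50 and not all replicates reaching 50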;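 note: 0% = plate neutral controls and 100% = maraviroc near 300 nM; one replicate is shown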
Rce1 inhib: yeast Rce1p protease inhibitors, primary screen, biochemical, fluorescence, cell-free homogeneous; CAAX prenyl protease 2 (Saccharomyces cerevisiae (strain ATCC 204508 / S288c)), Q03530; yeast membranes, quenched prenylated peptide cleavage fluorescence; calls only; 0.27% of 290,000 active;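 active = fall in fluorescence gain of 50% or more versus controls, with final raw signal at or below 3038400; inconclusive = same 50% fall but final raw signal above 3038400; inactive = fall in fluorescence gain under 50%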;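 note: plate controls were neutral control wells for no effect and wells lacking membranes for full effect; tested at 10 µM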
Target sequence (Q03530 whole entry, looked up): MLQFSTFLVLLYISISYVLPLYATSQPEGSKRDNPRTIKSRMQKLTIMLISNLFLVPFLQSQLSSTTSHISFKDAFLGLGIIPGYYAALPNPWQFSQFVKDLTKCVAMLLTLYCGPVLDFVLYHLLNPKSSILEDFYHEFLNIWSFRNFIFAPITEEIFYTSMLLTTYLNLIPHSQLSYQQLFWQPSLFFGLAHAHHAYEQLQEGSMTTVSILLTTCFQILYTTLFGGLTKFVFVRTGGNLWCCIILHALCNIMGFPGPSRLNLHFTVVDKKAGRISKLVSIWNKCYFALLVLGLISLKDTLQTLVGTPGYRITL
CSC inhib: cancer stem cell viability inhibitors, primary screen, luminescence; AID 2717, 2010; 1.1% of 300,000 active; inhibition, % at 7.5 µM; cancer stem cell-like cells viability;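 active = mean at 75% or more and at least half the replicates too; inconclusive = mean and replicates disagree; tested in HMLE shEcad cells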;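 note: 0% = median of negative and 100% = median of positive control wells; the first replicate is given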
PABP FP inh: PABP poly(A) RNA binding inhibitors, primary screen, biochemical, fluorescence polarization, uHTS; Polyadenylate-binding protein 1 (Homo sapiens), P11940; inhibition, % at 35 µM; 1% of 290,000 active;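 active = 50% or more with normal probe brightness, or confirmed in later tests; inconclusive = above 50% with abnormal brightness, or retests that disagree; inactive = below 50% or failed in later tests; about a fifth of its hits are not listed in these tables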;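 note: calls also rest on retests at 20 µM and on dose response follow-up; controls were probe without protein and protein plus probe with vehicle; some compounds called inactive have numbers as strong as hits; many hits fall short of the cut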
MT1-MMP act inh: blockers of MT1-MMP proenzyme processing, primary screen, HT1080 RFP-PRO-GFP cells, GFP/RFP fluorescence; GFP/RFP ratio fluorescence, overnight; percent of plate control window, DMSO zero; GFP/RFP ratio change, % at 20 µM; 0.061% of 360,000 active; AID 651647, 2012;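 active = GFP/RFP ratio change of at least 30% with cell ATP level not reduced by more than half and red fluorescence within 50% of control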; note: strong numbers were not always called active
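Read-out: GFP/RFP fluorescence ratio; Test system: RFP-PRO-GFP reporter HT1080 cells; Compound dosing: single-point 20 µM compound, 1% DMSO; Times: overnight compound exposure at 37 °C.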
eIF4H FP inh: human eIF4H binding inhibitors, primary screen, translation initiation inhibitor project, biochemical, uHTS, fluorescence polarization | 0.94% of 290,000 active | eIF4H fluorescence polarization binding assay | AID 2012, 2009 | inhibition, % at 35 µM | Eukaryotic translation initiation factor 4H (Homo sapiens), Q15056;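 active = 50% or more with normal probe brightness, or confirmed in later tests; inconclusive = above 50% with abnormal brightness, or retests that disagree; inactive = below 50% or failed in later tests; about a fifth of its hits are not listed in these tables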;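 note: calls also rest on retests at 20 µM and on dose response follow-up; 0% = protein and probe with vehicle and 100% = probe without protein; strong numbers were not always called active; many hits fall short of the cut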
Yeast UUG start: modulators of yeast start codon fidelity, primary screen, whole organism, S. cerevisiae, single point, plate reader. S. cerevisiae UUG-firefly luciferase reporter, luminescence/redox ratio. activity score, % at 18.7 µM. 0.13% of 350,000 active. AID 602363, 2012;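 active = replicate mean at a twofold rise or more, about +100% in these data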;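 note: firefly luciferase made from a UUG start codon reports start codon fidelity; reporter light over untreated wells divided by growth signal over untreated wells; some hits fall short of that in this replicate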
eIF4H FP inh retest: also measured in eIF4H FP inh; calls as there; inhibition, %; compound at 20 µM; confirmation average;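 mean of two retest wells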
PABP FP inh retest: recorded beside PABP FP inh, whose call it bears; inhibition, %; compound at 20 µM; confirmation repeats;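 mean of two retest wells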
MT1-MMP act inh RFP: also measured in MT1-MMP act inh; calls as there; RFP signal change, %; measured here: RFP expression control read;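 0 = vehicle wells; hits needed this value within 50% of zero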
An asterisk follows results filed as active; i = inactive; u = inconclusive; x = no result given.

SMILES	Env fusion inh	Rce1 inhib	CSC inhib	PABP FP inh	MT1-MMP act inh	MT1-MMP act inh RFP	eIF4H FP inh	Yeast UUG start	others
O=C(Nn1c(-c2ccc(Br)cc2)nc2ccccc2c1=O)c1ccc([N+](=O)[O-])cc1	-9	i	9	-5	4	-9	0	x
Cc1cccc(C(=O)OCC(=O)N2CCC(c3ccccc3)=N2)c1O	-8	i	-3	x	-6	-4	x	-19
CC(O)(c1cccnc1)c1nc(-c2cccc3cccnc23)cs1 (stereo unspecified)	-8	x	x	x	-5	1	x	-5
COc1ccc2[nH]c(=O)c(CN(CCO)C(=O)c3cccs3)cc2c1	x	x	0	-8	-1	1	-4	-8
CC(C(=O)Nc1cccc([N+](=O)[O-])c1)N1C(=O)NC2(CCCC2)C1=O (stereo unspecified)	7	i	-9	-4	0	2	-10	-22
CCCc1ccc(Oc2cn[nH]c2-c2ccc(O)cc2O)cc1	16	i	u	-1	-6	-8	1	-17
C=CCNC(=O)c1ccc(S(=O)(=O)CC)c(Cl)c1Cl	-13	i	-1	43	-6	-1	2	x
CC(C(=O)Nc1ccc2c(c1)OCO2)n1cnc2c1c(=O)n(C)c(=O)n2C (stereo unspecified)	x	x	-5	x	6	-2	x	-20
COc1ccc(Nc2nc(N)c(C(=O)c3ccc(OC)cc3)s2)cc1	-159	i	46	0	-13	-14	3	-5
CC(=O)NC1C(=O)N=C(SCC(=O)NCc2ccccc2)NC1=O (stereo unspecified)	x	i	-4	1	3	2	-5	x
CCCN1CCC(=O)N([C@H](CSc2ccc(OC)cc2)CC(C)C)CC1	-38	i	6	7	-4	-2	-4	-17
COc1cc(NC2=CC(=O)CC(C)(C)C2)cc(OC)c1OC	-24	i	x	10	1	0	-4	-1
FC(F)(F)c1ccc(NC2=NCCC2)cc1	-5	i	2	-1	x	x	1	x
Cc1onc(-c2ccccc2Cl)c1C(=O)Nc1ccc(CN2CCCC2)cc1	x	i	31	-9	-1	3	-2	-9
CC1(C)Cc2c(C#N)c(N)n(-c3ccccc3)c(=S)c2CO1	7	i	2	26	1	5	29	-1
C[C@H](CO)N1C[C@H](C)[C@@H](CN(C)Cc2ccc(C(=O)Nc3ccccc3N)cc2)Oc2c(NC(=O)C3CCCCC3)cccc2C1=O	-17	x	x	x	1	-1	x	0
O=C(NCc1ccccn1)C1CCC(CNS(=O)(=O)c2cccc3nsnc23)CC1 (stereo unspecified)	10	i	4	-1	11	6	-4	-13
O=C(Cn1ncc2c([nH]c3ccccc32)c1=O)N1CCc2ccccc2C1	-2	i	1	4	2	2	-2	-18
C#Cc1cccc(C(=O)N(Cc2cccnc2)CC2CCCN(C3CCCCC3)C2)c1 (stereo unspecified)	u	x	x	x	-5	3	x	-6
CC1CC(C)(C)CC2(C1)NC(=O)N(CC(=O)N1CCN(S(=O)(=O)c3cccc(F)c3)CC1)C2=O (stereo unspecified)	3	x	9	x	-12	1	x	x
Cc1ccc(C2C(C#N)=C(N)Oc3cc4c(cc32)OCO4)cc1 (stereo unspecified)	-35	i	42	5	-7	-11	8	-20
COc1ccc(-c2nc3ccccc3c(=O)n2CCCn2ccnc2)cc1	-55	i	-4	-6	-12	-3	-5	-10
Cc1ccc(CNC(=O)CSc2nc3ccccc3[nH]2)cc1	-81	i	1	8	2	-3	-6	-8
O=C(Cc1ccc(Br)cc1)NCCCn1ccnc1	-17	i	-12	3	-1	1	-6	-12
Cc1ccc(CNC(=O)C2CCCN(c3ncnc4c3nc3n4CCCCC3)C2)cc1 (stereo unspecified)	29	i	1	16	-4	-6	-5	5
The list goes on:
SMILES	Env fusion inh	Rce1 inhib	CSC inhib	PABP FP inh	MT1-MMP act inh	MT1-MMP act inh RFP	eIF4H FP inh	Yeast UUG start	others
Cc1c(O)nc(SCC(=O)Nc2nccs2)n(-c2ccccc2F)c1=O	16	i	-15	4	2	4	-7	2
CCCC(=O)OCC(=O)Nc1ccccc1Sc1ccccc1	x	i	-10	-4	-7	2	-2	x
COc1ccc(S(=O)(=O)N2CCC(C(=O)N3CCOCC3)CC2)cc1OC	x	i	-11	-1	1	4	2	-12
O=C1CCC/C1=C\c1ccccc1	-6	i	14	10	-2	2	20	x
Cc1c(Br)cc(-c2nnco2)cc1Br	-36	i	-15	-4	-2	2	-1	x
Cc1cccc(C)c1N1C(=O)C2ON(c3ccccc3)C(c3ccncc3)C2C1=O (stereo unspecified)	-23	i	2	17	-2	1	-6	-2
CC(=O)OC(COc1cccc(C)c1)Cn1cnc2ccccc21 (stereo unspecified)	15	i	-14	-8	x	x	10	x
CCc1nc2ccc(C(=O)NCCOc3ccc(OC)cc3)cn2c1N(CC)Cc1ccc(OC)c(OC)c1	u	x	x	x	1	-2	x	-13
C/C(=N\Nc1cccc([N+](=O)[O-])c1)c1ccccc1O	-54	i	12	-1	5	-2	-6	-9
COc1ccccc1C(=O)N/N=C/c1cnc2ccccc2n1	x	i	-2	-4	-1	2	4	-15
CCN(CC)S(=O)(=O)c1cccc(C(=O)N/N=C/c2ccc(O)c(O)c2O)c1	x	x	16	2	-4	-2	72	x	eIF4H FP inh retest=-17;PABP FP inh retest=4
O=C1OCCC1(c1ccccc1)c1ccccc1	-3	x	x	x	0	3	x	-7
CN1C[C@@H]2[C@@H]3C(=O)N(Cc4ccccc4)C(=O)[C@@H]3[C@](C)(C1=O)N2C(=O)c1ccc(F)cc1	-16	x	x	x	0	3	x	10
CC1(C)CC2(CCO1)N1CC3(C)CN2CC(C)(C1)C3=O (stereo unspecified)	x	i	8	x	-4	1	x	x
O=C(Nc1ccc2c(c1)OCCO2)c1ccc(CN2CCOCC2)cc1	x	i	1	-12	1	-6	-8	-15
CCc1ccc(/C=C(\C#N)C(=O)NC2CCS(=O)(=O)C2)cc1 (stereo unspecified)	x	x	-13	x	-1	1	x	-21
COc1ccc(N2C(=O)CC(N(CCc3ccc(S(N)(=O)=O)cc3)C(=S)Nc3ccccc3)C2=O)cc1 (stereo unspecified)	14	i	11	25	5	-2	48	-4
O=C(CCCc1c[nH]c2ccccc12)NCCc1c[nH]c2ccccc12	6	x	4	9	0	2	-12	-11
CCOC(=O)c1c(C)oc2ccc(O)c(CN3CCCCC3)c12	x	i	-8	3	5	4	-5	-14
CC(C)(C)NC(=S)NNC(=O)[C@H]1C[C@@H]1c1ccccc1	0	i	-7	-3	3	1	2	x
CCc1noc(C)c1C(=O)Nc1nc(-c2ccc(OC)cc2)cs1	x	i	-7	x	-9	-14	x	-6
COc1ccccc1-c1ccc2c(c1)C(C)(Cc1ccc(F)c(Cl)c1)C(=O)N2 (stereo unspecified)	96*	x	x	x	-6	-9	x	-11
CSc1cc(-c2ccccc2)[nH]c(=O)c1C#N	1	i	7	4	2	5	8	x
CCOc1ccccc1C(=O)Nc1c[nH]c(=O)[nH]c1=O	33	i	x	-11	-1	2	-7	-6
COc1cc2[nH]c(=O)n3nc(-c4ccccc4)nc3c2cc1OC	x	i	-9	-9	15	2	-7	x
More results follow:
SMILES	Env fusion inh	Rce1 inhib	CSC inhib	PABP FP inh	MT1-MMP act inh	MT1-MMP act inh RFP	eIF4H FP inh	Yeast UUG start	others
CCOC(=O)Cn1c(CN2CCN(c3cccc(Cl)c3)CC2)nc2c1c(=O)[nH]c(=O)n2C	-3	i	0	0	-3	-4	0	-11
COc1ccc(NC(=S)Nc2ccc3snnc3c2)cc1	-15	i	-5	-16	0	-1	-2	-20
O=C(COc1ncnc2ccccc12)NCCCN1CCCC1=O	7	i	5	-5	7	13	2	-19
CCOc1c2ccc(C(=O)NCCc3cccs3)cc2nn1CC	-23	i	-4	6	6	5	1	-4
CN(Cc1cccc(Cl)c1Cl)c1ccc(S(=O)(=O)N2CCCCC2)cc1[N+](=O)[O-]	17	i	6	3	-1	-8	-4	-16
CCC1(CC)Cc2ccccc2C(CC(=O)N2CCOCC2)=N1	x	i	-2	20	-8	0	2	7
Cc1ccc([N+](=O)[O-])cc1NC(=O)c1ccccc1	3	i	-1	4	0	-4	-1	84
COCC(=O)NC1CC(C)(C)Cc2c1cnn2-c1ccc(F)cc1 (stereo unspecified)	-3	i	-5	-6	1	-1	2	-26
Cc1ccc(C)c(OCC(=O)Nn2c(C)nc3ccccc3c2=O)c1	x	i	-11	1	8	2	4	-12
O=C(N/N=C/c1c[nH]c2ccccc12)c1ccn(Cc2ccc(Cl)cc2Cl)n1	x	i	5	-15	6	1	-7	4
Cc1ccnc(-n2c(C)cc(/C=N/NC(=O)COc3cccc4cccnc34)c2C)c1	-24	i	-13	5	-1	-5	-7	x
O=C(CSc1nc2ccccc2c(=O)n1-c1ccccc1)NCc1ccco1	x	i	-7	-6	-2	-1	2	-2
O=C(NCc1ccccc1)c1nc[nH]c1C(=O)N1CCc2ccccc2C1	4	x	-11	x	-3	1	x	-8
CCN1CCN(C(c2ccc(F)cc2)c2nnnn2Cc2cccs2)CC1 (stereo unspecified)	x	i	-6	-4	-3	4	-5	-6
O=C(NNC(=O)C12CC3CC(CC(C3)C1)C2)c1cccc([N+](=O)[O-])c1	27	i	3	10	3	3	-8	-10
Cc1occc(=O)c1OC(=O)Nc1ccccc1	x	i	5	-1	-2	3	3	-5
O=C(c1ccc(Cl)s1)N1CCN(c2ccccc2)CC1	-14	i	10	15	-4	-6	9	-3
CC1=C(N2CCCCC2)CCC1=O	-12	i	-3	x	3	6	x	12
COc1ccc(C2=NOC(C(=O)N(C)Cc3ccccc3)C2)cc1 (stereo unspecified)	9	x	-11	u	-2	2	-7	x
CCOc1ccc(NC(=S)N=Nc2c(O)[nH]c3ccccc23)cc1	25	i	-18	-6	14	-5	9	x
COc1cccc(COc2ccc3c(C)cc(=O)oc3c2)c1	-104	i	6	14	1	0	-3	-14
Cc1ccc(NC(=O)NC2CC(=O)N(c3ccc4c(c3)OCCO4)C2)cc1F (stereo unspecified)	7	i	-10	x	-5	-4	x	-16
CCOc1cc(/C=C2\C(=N)N3N=C(C)SC3=NC2=O)ccc1OCCOc1ccccc1	-6	i	x	-10	0	-5	-4	-12
O=C(C1CCN(S(=O)(=O)c2ccccc2F)CC1)N1CCc2ccccc2C1	15	i	-10	15	1	5	-1	0
CCC(C)C1C(C#N)=C(N)Oc2n[nH]c(C)c21 (stereo unspecified)	-4	i	-5	2	-3	0	8	-18
COc1ccc(-c2cc(-c3cccs3)c(C#N)c(SCC(=O)NCc3ccco3)n2)cc1	x	x	-8	12	8	-9	55*	-18	eIF4H FP inh retest=67*;PABP FP inh retest=6
CC(C)c1ccc(-c2nnc(SCC(=O)NC3CC3)n2C)cc1	-38	i	5	2	3	-1	-10	-12

An excerpt taken from the entries so far, as a working copy:
SMILES	Env fusion inh	Rce1 inhib	CSC inhib	PABP FP inh	MT1-MMP act inh	MT1-MMP act inh RFP	eIF4H FP inh	Yeast UUG start	others
O=C(Nn1c(-c2ccc(Br)cc2)nc2ccccc2c1=O)c1ccc([N+](=O)[O-])cc1	-9	i	9	-5	4	-9	0	x
Cc1cccc(C(=O)OCC(=O)N2CCC(c3ccccc3)=N2)c1O	-8	i	-3	x	-6	-4	x	-19
CC(O)(c1cccnc1)c1nc(-c2cccc3cccnc23)cs1 (stereo unspecified)	-8	x	x	x	-5	1	x	-5
COc1ccc2[nH]c(=O)c(CN(CCO)C(=O)c3cccs3)cc2c1	x	x	0	-8	-1	1	-4	-8
